ID4 binder = binders of human ID4 protein; small molecule microarray, Flag-ID4 binding, fluorescence F/B; AID 624137; hit rate 1.2% among 31,000; calls only;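 active = spot signal over background at p below 0.07 in all four prints; compounds were printed on slides so no solution concentration is given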;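 note: a binder raises fluorescence above local background on the spot; about 2 pmol printed per array spot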
Target sequence (P47928 whole entry, looked up): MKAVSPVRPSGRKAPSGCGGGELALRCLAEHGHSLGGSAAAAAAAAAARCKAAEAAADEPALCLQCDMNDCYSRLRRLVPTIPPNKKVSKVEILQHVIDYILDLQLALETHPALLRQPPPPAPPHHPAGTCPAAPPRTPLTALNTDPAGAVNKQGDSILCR
STAT3 SMM = STAT3 (human) binding | P40763 | Small molecule microarray, His-STAT3 binding, anti-His fluorescence | calls only | hit rate 0.2% among 17,000;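 active = compounds whose four printed spots each show fluorescence over background unusually high for their array block, chance value under 7%; compounds were printed on slides so no solution concentration is given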;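 note: about 2 pmol printed per array spot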
Target sequence (P40763 whole entry, looked up): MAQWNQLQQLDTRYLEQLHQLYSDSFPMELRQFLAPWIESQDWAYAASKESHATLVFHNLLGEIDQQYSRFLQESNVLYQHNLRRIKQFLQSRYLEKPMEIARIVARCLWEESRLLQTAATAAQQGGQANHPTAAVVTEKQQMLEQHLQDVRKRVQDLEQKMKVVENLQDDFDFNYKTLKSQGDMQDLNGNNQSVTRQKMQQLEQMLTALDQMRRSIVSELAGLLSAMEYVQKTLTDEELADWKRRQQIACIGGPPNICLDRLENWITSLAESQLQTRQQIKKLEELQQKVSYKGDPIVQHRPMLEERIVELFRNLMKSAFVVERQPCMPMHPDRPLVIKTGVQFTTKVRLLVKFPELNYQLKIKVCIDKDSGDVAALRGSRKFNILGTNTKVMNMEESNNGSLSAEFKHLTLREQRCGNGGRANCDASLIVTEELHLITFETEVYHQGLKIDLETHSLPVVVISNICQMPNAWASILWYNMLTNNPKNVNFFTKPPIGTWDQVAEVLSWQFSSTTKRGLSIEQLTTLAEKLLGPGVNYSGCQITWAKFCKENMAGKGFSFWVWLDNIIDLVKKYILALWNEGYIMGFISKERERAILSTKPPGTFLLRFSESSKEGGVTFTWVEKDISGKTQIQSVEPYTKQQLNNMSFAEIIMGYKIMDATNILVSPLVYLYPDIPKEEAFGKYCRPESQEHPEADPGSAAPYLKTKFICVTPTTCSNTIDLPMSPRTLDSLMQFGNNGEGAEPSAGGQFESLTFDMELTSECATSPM
p53 mut binder = binds human mutant p53 on microarray. small molecule microarray binding, anti-GST fluorescence. calls only. hit rate 0.4% among 17,000. AID 624136;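 active = compounds whose four printed spots each glow above background more than chance allows, each with a p-value under 7%; compounds were printed on slides so no solution concentration is given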;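 note: about 2 pmol printed per array spot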
c-Myc SMM = binders of human c-Myc. small molecule microarray, His-c-Myc binding, anti-His fluorescence. hit rate 1.5% among 17,000. calls only;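 active = spot fluorescence over background with P-value below 7% in all four replicate spots, showing protein binding; compounds were printed on slides so no solution concentration is given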;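 note: score is binary with 100 for all four spots passing and 0 otherwise; about 2 pmol printed per array spot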
Calls only; i = inactive; . = no result given; + = active, no number.

| mol | ID4 binder | STAT3 SMM | p53 mut binder | c-Myc SMM |
| --- | --- | --- | --- | --- |
| C[C@@H]1CCCCO[C@@H](CN(C)C(=O)Nc2ccccc2)[C@@H](C)CN([C@H](C)CO)C(=O)c2cc(NC(=O)CCC(F)(F)F)ccc2O1 | i | i | i | i |
| C[C@@H]1CN([C@@H](C)CO)C(=O)CCCn2nncc2CO[C@@H]1CN(C)C(=O)Nc1ccccc1C(F)(F)F | i | i | i | i |
| COC(=O)C1=CO[C@@H](O[C@@H]2O[C@H](CO)[C@@H](O)[C@H](O)[C@H]2O)[C@@H]2[C@@H](CO)C=C[C@H]12 | . | i | i | i |
| C[C@@H]1CCCCO[C@H](CN(C)C(=O)Nc2ccccc2)[C@H](C)CN([C@@H](C)CO)C(=O)c2cc(NS(=O)(=O)c3cn(C)cn3)ccc2O1 | . | i | i | i |
| C[C@@H]1CN([C@H](C)CO)C(=O)c2cccc(NC(=O)Nc3ccc(C(F)(F)F)cc3)c2O[C@@H]1CN(C)CC1CC1 | i | i | i | i |
| C[C@H](CO)N1C[C@H](C)[C@@H](CN(C)C)Oc2ccc(NC(=O)Nc3cccc4ccccc34)cc2C1=O | i | i | i | i |
| O=C(O)CCc1c(C(=O)O)[nH]c2cc(Cl)cc(Cl)c12 | i | i | i | i |
| C=C1CCCC(C)(C(=O)OC)C1CC/C(C)=C/CCC1=CC(=O)OC1 (configuration not stated) | i | i | i | i |
| Cc1oc2nc(SCC(=O)N3CCCCC3)nc(N)c2c1C | i | i | i | i |
| CC(C)(C)c1cc(C(=O)NCc2ccco2)ccn1 | i | i | i | i |
| Cc1noc(C)c1NC(=O)N(C)C[C@@H]1Oc2ccc(NS(=O)(=O)c3cn(C)cn3)cc2C(=O)N([C@H](C)CO)C[C@@H]1C | i | i | i | i |
| C[C@H]1CN([C@@H](C)CO)C(=O)c2cccc(NC(=O)C3CCOCC3)c2O[C@H]1CN(C)C | i | i | i | i |

The final three records of the part before are carried over, then new ones follow.
| mol | ID4 binder | STAT3 SMM | p53 mut binder | c-Myc SMM |
| --- | --- | --- | --- | --- |
| CC(C)(C)c1cc(C(=O)NCc2ccco2)ccn1 | i | i | i | i |
| Cc1noc(C)c1NC(=O)N(C)C[C@@H]1Oc2ccc(NS(=O)(=O)c3cn(C)cn3)cc2C(=O)N([C@H](C)CO)C[C@@H]1C | i | i | i | i |
| C[C@H]1CN([C@@H](C)CO)C(=O)c2cccc(NC(=O)C3CCOCC3)c2O[C@H]1CN(C)C | i | i | i | i |
| COc1ccccc1NC(=O)COc1ccc(Cl)cc1CO | i | i | i | i |
| C[C@H]1CN([C@@H](C)CO)C(=O)c2cc(NC(=O)Nc3cccc4ccccc34)ccc2O[C@@H]1CN(C)C | i | i | i | i |
| C[C@@H]1CN([C@H](C)CO)C(=O)c2cccc(NC(=O)Nc3ccccc3)c2O[C@H]1CN(C)C(=O)NC1CCCCC1 | i | i | i | i |
| CC[C@@H]1/C=C(\C)C[C@H](C)C[C@H](OC)[C@H]2O[C@@](O)(C(=O)C(=O)N3CCCC[C@H]3C(=O)O[C@H](/C(C)=C/[C@@H]3CC[C@@H](O)[C@H](OC)C3)[C@H](C)[C@@H](O)CC1=O)[C@H](C)C[C@@H]2OC | . | i | i | i |
| C[C@@H]1CCCCO[C@@H](CN(C)Cc2ccccc2)[C@H](C)CN([C@H](C)CO)C(=O)c2cc(N(C)C)ccc2O1 | i | i | i | i |
| C[C@@H]1CCCCO[C@H](CN(C)Cc2ccccc2)[C@H](C)CN([C@@H](C)CO)C(=O)c2cc(NS(C)(=O)=O)ccc2O1 | i | i | i | i |
| COc1cccc(NC(=O)c2cc([N+](=O)[O-])ccc2NCc2cccnc2)c1 | i | i | i | i |
| C[C@@H]1CN([C@H](C)CO)C(=O)Cc2cc(NS(=O)(=O)c3ccccc3)ccc2O[C@@H]1CN(C)S(=O)(=O)c1ccc(F)cc1 | i | i | i | i |
| COc1ccc(-n2c(SCC(=O)N(c3ccccc3)c3ccccc3)nc3ccccc3c2=O)cc1 | i | i | i | i |
| C[C@@H]1CN([C@H](C)CO)C(=O)c2cccc(N(C)C)c2O[C@H]1CN(C)Cc1ccc(C(=O)O)cc1 | i | i | i | i |
| C[C@@H]1CN([C@@H](C)CO)C(=O)c2cc(NC(=O)C3CC3)ccc2O[C@@H]1CN(C)C(=O)Nc1ccccc1 | i | i | i | i |
| C[C@H](CO)N1C[C@H](C)[C@H](CN(C)C(=O)Nc2ccccc2)Oc2ccc(NC(=O)CCN3CCOCC3)cc2CC1=O | i | i | i | i |
| O=C(NCCCN1CCOCC1)Nc1ccc(Cl)cc1 | i | i | i | i |
| C[C@@H]1CN([C@@H](C)CO)C(=O)c2cc(NS(C)(=O)=O)ccc2O[C@@H]1CN(C)C(=O)Nc1ccc(F)cc1 | i | i | i | i |
| C[C@@H]1CC[C@]2(C(=O)O)CC[C@]3(C(=O)O)C(=CCC4[C@@]5(C)CC[C@H](O[C@@H]6O[C@H](C)[C@H](O)[C@H](O)[C@H]6O)C(C)(C)C5CC[C@]43C)C2[C@H]1C (some centres not stated) | i | i | i | i |
| CC(C)NC(=O)Nc1ccc2c(c1)CC(=O)N([C@H](C)CO)C[C@H](C)[C@H](CN(C)Cc1ccc(-c3ccccc3)cc1)O2 | i | i | i | i |
| C[C@H](CO)N1C[C@H](C)[C@@H](CN(C)S(=O)(=O)c2ccc(Cl)cc2)Oc2c(NC(=O)Nc3ccc(F)cc3)cccc2C1=O | i | i | i | i |
| C[C@H]1CCCCO[C@H](CN(C)C(=O)CCCN(C)C)[C@@H](C)CN([C@@H](C)CO)C(=O)c2cc(NC(=O)c3ccncc3)ccc2O1 | i | i | i | i |
| C[C@@H]1CN([C@H](C)CO)C(=O)c2cccc(NS(=O)(=O)c3ccc(Cl)cc3)c2O[C@H]1CN(C)Cc1ccc(C(=O)O)cc1 | i | i | i | i |
| COCC1OC(OC(C)(C)C2CCC3(C)C(O2)C(O)CC2(C)/C(=C4\CCC(O)C(C)(CCC(O)C(C)(C)O)C4)CCC23)C(NC(C)=O)C(O)C1O (configuration not stated) | i | i | i | i |
| CN(CC(=O)O)S(=O)(=O)c1ccc(F)c2ccccc12 | i | i | i | i |
| C[C@H]1CN([C@@H](C)CO)C(=O)c2cc(NC(=O)CCCN(C)C)ccc2O[C@@H]1CN(C)C | i | i | i | i |
| C=CC1(C)C[C@H](OC(=O)C(C)CO)[C@H]2C(=C)C(=O)O[C@@H]2C1C(=C)CO (some centres not stated) | . | i | i | i |
| Cc1ccc(S(=O)(=O)Nc2ccc3c(c2)C(=O)N([C@@H](C)CO)C[C@H](C)[C@@H](CN(C)S(=O)(=O)c2cccs2)OCCCC[C@@H](C)O3)cc1 | . | i | i | i |
| C=C(CC/C=C(\C)C(=O)O)C1(O)CC=C(C)CC1 (configuration not stated) | i | i | i | i |
| COc1ccc(C2(C(=O)NCCN3CCOCC3)CCOCC2)cc1 | i | i | i | i |
| C[C@@H]1CN([C@@H](C)CO)C(=O)Cc2cc(N(C)C)ccc2O[C@@H]1CN(C)C(=O)Nc1cccc2ccccc12 | i | i | i | i |
| N#CC(Cc1ccc(O)cc1)c1ccc(O)cc1 (configuration not stated) | i | i | i | i |
| C[C@H](CO)N1C[C@H](C)[C@@H](CN(C)C(=O)NC2CCCCC2)Oc2ccc(NC(=O)Nc3ccc(C(F)(F)F)cc3)cc2C1=O | i | i | i | i |
| CC1(CCOC2OC(CO)C(O)C(O)C2O)CCC2C(=CCC3C(C)(C(=O)O)CCCC23C)C1 (configuration not stated) | i | i | i | i |
| C[C@@H]1CN([C@H](C)CO)C(=O)c2cc(NS(=O)(=O)c3cccs3)ccc2O[C@@H](C)CCCCO[C@@H]1CN(C)C(=O)CCCN(C)C | i | i | i | i |
| C[C@H]1CCCCO[C@@H](CN(C)Cc2ccccc2)[C@@H](C)CN([C@@H](C)CO)C(=O)c2cc(N(C)C)ccc2O1 | i | i | i | i |
| COCc1c(Br)c(C)nc(OCC(=O)O)c1C#N | i | i | i | + |
| COc1cc2c(cc1OC)CN(C(=O)[C@@H]1[C@H]3C(=O)O[C@H](c4ccccc4)[C@H](c4ccccc4)N3[C@H](c3ccc(O)cc3)[C@@]13C(=O)Nc1ccccc13)CC2 | i | i | i | i |
| COC(=O)c1ccc2c(=O)n(CCc3cnc[nH]3)c(=S)[nH]c2c1 | i | i | i | i |
| COc1ccc(S(=O)(=O)N(C)C[C@H]2Oc3c(NC(=O)C4CC4)cccc3C(=O)N([C@@H](C)CO)C[C@@H]2C)cc1 | i | i | i | i |

Whole records, quoted from the list. Values in the order: ID4 binder, STAT3 SMM, p53 mut binder, c-Myc SMM
C[C@H](CO)N1C[C@H](C)[C@@H](CN(C)C)Oc2ccc(NC(=O)Nc3cccc4ccccc34)cc2C1=O reads i, i, i, i
C[C@@H]1CN([C@H](C)CO)C(=O)c2cccc(NS(=O)(=O)c3ccc(Cl)cc3)c2O[C@H]1CN(C)Cc1ccc(C(=O)O)cc1 reads i, i, i, i
C[C@@H]1CN([C@@H](C)CO)C(=O)CCCn2nncc2CO[C@@H]1CN(C)C(=O)Nc1ccccc1C(F)(F)F reads i, i, i, i

More results follow:
| mol | ID4 binder | STAT3 SMM | p53 mut binder | c-Myc SMM |
| --- | --- | --- | --- | --- |
| C[C@H](CO)N1C[C@H](C)[C@H](CN(C)C(=O)Nc2cccc3ccccc23)Oc2ccc(NS(C)(=O)=O)cc2CC1=O | i | i | i | i |
| CCOC(=O)Cc1cc(=O)[nH]c(Nc2nc3ccccc3o2)n1 | i | i | + | i |
| CCC(Sc1nc(N)cc(=O)[nH]1)C(=O)Nc1ccc2ccccc2c1 (configuration not stated) | i | i | i | i |
| COc1ccc(S(=O)(=O)N(C)C[C@@H]2Oc3c(NC(=O)c4ccc(-c5nccs5)cc4)cccc3C(=O)N([C@@H](C)CO)C[C@H]2C)cc1 | i | i | i | i |
| C=C[C@@H](COC(C)=O)NS(=O)(=O)c1ccc(Br)cc1 | i | i | i | i |
| C[C@@H]1CN([C@@H](C)CO)C(=O)c2cc(NC(=O)C3CC3)ccc2O[C@@H]1CN(C)C | i | i | i | i |
| CC(C(N)=O)N(c1ccc(Cl)cc1)S(C)(=O)=O (configuration not stated) | i | i | i | i |
| C[C@@H]1CN([C@@H](C)CO)C(=O)Cc2cc(NC(=O)Nc3ccccc3)ccc2O[C@H]1CN(C)Cc1ccc(C(=O)O)cc1 | i | i | i | i |
| CCOc1ccc(S(=O)(=O)NCc2ccco2)c(C)c1C | i | i | i | i |
| O=C(CN1CCN(S(=O)(=O)c2ccc3ccccc3c2)CC1)Nc1ccc(Br)cc1 | i | i | i | i |
| C[C@@H]1CCCCO[C@@H](CN(C)S(=O)(=O)c2ccccc2)[C@@H](C)CN([C@H](C)CO)C(=O)c2cc(NC(=O)c3ccncc3)ccc2O1 | . | i | i | i |
| CC(C)NC(=O)N(C)C[C@@H]1OCCCC[C@H](C)Oc2ccc(NC(=O)Nc3ccc4c(c3)OCO4)cc2C(=O)N([C@H](C)CO)C[C@@H]1C | i | i | i | i |
| C=C1CC[C@@]2(OC1)O[C@H]1CC3[C@@H]4CC=C5C[C@H](O[C@@H]6OC[C@H](O)[C@H](O)[C@H]6O[C@@H]6O[C@@H](C)[C@H](O)[C@@H](O)[C@H]6O)C[C@@H](O)[C@]5(C)C4CC[C@]3(C)[C@H]1[C@@H]2C (some centres not stated) | i | i | i | + |
| COc1ccc(S(=O)(=O)N(C)C[C@@H]2Oc3ccc(NC(=O)CCCN(C)C)cc3C(=O)N([C@@H](C)CO)C[C@H]2C)cc1 | i | i | i | i |
| O=C1Nc2ccc(S(=O)(=O)NCCCO)c3cccc1c23 | i | i | i | i |
| C[C@H]1CN([C@@H](C)CO)C(=O)Cc2cc(NC(=O)Cn3cnnn3)ccc2O[C@H]1CN(C)C(=O)NC1CCCCC1 | i | i | i | i |
| CC1=C(C(=O)Nc2cccc(Cl)c2)C(c2cc(Br)ccc2OCC(=O)O)NC(=O)N1 (configuration not stated) | i | i | i | i |
| Cc1noc(C)c1S(=O)(=O)Nc1ccc2c(c1)C(=O)N([C@H](C)CO)C[C@H](C)[C@H](CN(C)C(=O)Cc1ccccc1)OCCCC[C@H](C)O2 | i | i | i | i |
| CC(C)NC(=O)Nc1ccc2c(c1)C(=O)N([C@@H](C)CO)C[C@@H](C)[C@@H](CN(C)Cc1ccccc1)OCCCC[C@@H](C)O2 | i | i | i | i |
| COc1cc(C2OCC3(OC4OC(CO)C(O)C(O)C4O)C(c4ccc(O)c(OC)c4)OCC23)ccc1O (configuration not stated) | i | i | i | i |
| C[C@H](CO)N1C[C@H](C)[C@@H](CN(C)Cc2ccncc2)Oc2ccc(NC(=O)Cn3cnnn3)cc2C1=O | i | i | i | i |
| C[C@H](CO)N1C[C@H](C)[C@H](CN(C)Cc2ccc(C(F)(F)F)cc2)OCc2cn(nn2)CCCC1=O | i | i | i | i |
| COc1ccc(CN(C)C[C@@H]2Oc3c(NC(=O)Nc4c(C)noc4C)cccc3C(=O)N([C@H](C)CO)C[C@H]2C)cc1 | i | i | i | i |
| Cc1ccc(-c2csc3nnc(SCc4csc(C)n4)n23)cc1 | i | i | i | i |
| C[C@H](CO)N1C[C@H](C)[C@@H](CN(C)Cc2ccccc2)Oc2c(NC(=O)C3CCOCC3)cccc2C1=O | i | i | i | i |
| C/C=C/C=C/C(=O)O[C@@H]1C=C(CO)[C@](O)(CO)[C@@]2(C)CCCC(C)(C)[C@H]12 | i | i | i | i |
| CC(=O)NCCc1c(Cc2ccccc2)[nH]c2ccccc12 | i | i | i | i |
| C[C@@H]1CN([C@H](C)CO)C(=O)c2cccc(NC(=O)Nc3cccc4ccccc34)c2O[C@H]1CN(C)C(=O)NC1CCCCC1 | i | i | i | i |
